# GALR2 ag: activates the human galanin receptor 2; activation, %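 (tested at 5 µM)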; O43603; GALR2-expressing cells, agonist activation read-out; AID 803; 140,000 tested, 0.48% active;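 active = above mean plus 3 SD of all compounds, about 5% in these data, not always enough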;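 also: 0% = vehicle buffer wells and 100% = reference agonist at full effect; tested in CHO reporter cells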
# Target sequence (O43603 whole entry, looked up): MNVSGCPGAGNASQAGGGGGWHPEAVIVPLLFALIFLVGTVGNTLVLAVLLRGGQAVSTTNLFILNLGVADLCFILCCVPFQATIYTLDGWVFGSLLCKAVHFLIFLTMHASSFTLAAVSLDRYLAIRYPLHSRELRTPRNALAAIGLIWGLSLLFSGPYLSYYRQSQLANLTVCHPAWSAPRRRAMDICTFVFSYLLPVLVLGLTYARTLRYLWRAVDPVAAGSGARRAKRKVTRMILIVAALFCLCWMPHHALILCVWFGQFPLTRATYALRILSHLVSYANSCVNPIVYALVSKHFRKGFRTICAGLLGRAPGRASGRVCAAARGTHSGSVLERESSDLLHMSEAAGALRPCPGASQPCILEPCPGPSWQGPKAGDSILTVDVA
# RGS16-Gao HTS: RGS16-Galphao interaction regulator (human) | O15492+P09471 | bead-based flow cytometry RGS16-Galphao binding, fluorescence; actives lie on both sides | binding response (% of control), % at 10 µM | 220,000 tested, 0.38% active | AID 1441;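 active = below 25% or above 175%, edge rows of some plates excepted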;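 also: Galphao activated by GDP with aluminum fluoride before binding; 100% = wells without compound and 0% = beads without RGS; some results beyond the cut were filed as inactive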
# Target sequence (O15492 whole entry, looked up): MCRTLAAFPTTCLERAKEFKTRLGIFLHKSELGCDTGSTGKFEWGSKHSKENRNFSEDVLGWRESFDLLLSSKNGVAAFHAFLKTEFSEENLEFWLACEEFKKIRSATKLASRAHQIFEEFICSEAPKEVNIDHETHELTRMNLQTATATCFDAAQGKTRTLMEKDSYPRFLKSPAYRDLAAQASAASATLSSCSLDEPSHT
# Target sequence (P09471 whole entry, looked up): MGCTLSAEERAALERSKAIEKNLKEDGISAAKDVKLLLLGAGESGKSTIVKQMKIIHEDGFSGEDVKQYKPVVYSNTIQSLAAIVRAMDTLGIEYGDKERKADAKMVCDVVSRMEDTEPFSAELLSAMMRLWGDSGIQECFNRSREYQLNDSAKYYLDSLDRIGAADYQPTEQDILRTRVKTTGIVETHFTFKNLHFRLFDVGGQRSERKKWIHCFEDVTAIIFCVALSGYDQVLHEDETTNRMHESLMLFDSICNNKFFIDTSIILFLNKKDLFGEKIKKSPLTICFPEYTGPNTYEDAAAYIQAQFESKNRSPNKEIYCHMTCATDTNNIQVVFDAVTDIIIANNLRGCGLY
# HSV augment: increases HSV replication in cells. AID 1956. HSV replication augmentation in cells, fold increase. maximum fold increase. 220,000 tested, 0.005% active;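 active = peak rise of 1.5-fold or more in the series; inconclusive = self-fluorescent or not available for retest; tested in PC3 cells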;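 also: first round at 10 µM; read as green reporter fluorescence; hits show the peak of a series up to 25 µM; 1 = signal of infected wells without compound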
# Insulin prom inh: TRM-6 insulin promoter activity inhibition. inhibition, % at 2 µM. TRM-6 cells (human fetal islet line), insulin promoter-eGFP reporter, imaging; reporter expression induced with tamoxifen. 130,000 tested, 0.9% active;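 active = inhibition above the mean plus 3 SD, with well images judged a real hit on visual review, cut at about 60% in these data, passing the limit was not always enough; inconclusive = inhibition over the cutoff but images rejected on review; inactive = inhibition not above the cutoff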
# PKD1 kinase inh: inhibitors of human PKD1 kinase; PKD1 kinase fluorescence polarization assay; Q15139; inhibition, %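 (about 10 µM by stock and volumes)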; AID 797; 200,000 tested, 0.056% active;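 active = inhibition of 50% or more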;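 also: controls were vehicle for no effect and a reference inhibitor for full effect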
# Insulin prom inh cell count: recorded beside Insulin prom inh, whose call it bears; normalized cell count, %; measured here: cell count, toxicity; reference of the scale not given here;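 cells exposed to compound for 48 h; stained nuclei by imaging scaled within each plate; lower means fewer cells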
# HSV augment primary fold: recorded beside HSV augment, whose call it bears; fold increase; compound at 10 µM; measured here: primary screen fold increase 10 uM; tested in PC3 cells;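 GFP signal in the first replicate; 1 = infected wells without compound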
# Active calls of the source: *; i = inactive; ? = inconclusive; . = not tested or not shown.
SMILES,GALR2 ag,RGS16-Gao HTS,HSV augment,HSV augment primary fold,Insulin prom inh,Insulin prom inh cell count,PKD1 kinase inh
COc1ccc(-c2nnc(SCCc3ccccc3)n2N)cc1,-1.2,99,i,0.85,-186,116,2
CCN(CCNC(=O)CN1CCN(Cc2ccc(Cl)cc2)C1=O)c1ccccc1,-1.6,100,i,1,0,60,-11
Cc1ncoc1C(=O)NCCC(c1ccccc1)c1ccccc1,.,111,i,0.93,.,.,-10
CCCCC(=O)NC(=S)NNC(=O)CC,-2.8,76,?,.,-192,85,-4
COc1ccc(C)cc1S(=O)(=O)N(C)CC(=O)NC1CCCCC1,0.2,106,i,0.94,6,141,3
COc1ccc2nc(NC(=O)C3CCCN(S(=O)(=O)c4c(C)noc4C)C3)sc2c1 (stereo unspecified),-0.3,102,i,0.95,.,.,-8
Nc1nnc(Sc2ncccc2[N+](=O)[O-])s1,.,102,i,0.92,7,120,2
CCn1cc([N+](=O)[O-])c(C(=O)Nc2cc(C)on2)n1,-1.2,97,i,1,50,142,-1
COc1cc(/C=N/N=C(/N)c2nonc2N)cc(Br)c1OCc1cccc(C)c1,-0.9,101,i,1.2,0,85,-1
COc1ccc(S(=O)(=O)Nc2cc(C)ccc2OC)cc1C,1.8,91,i,0.91,-105,120,4
Cn1c(Oc2ccc3c(c2)OCO3)nc2c1c(=O)n(Cc1ccccc1)c(=O)n2C,-1.3,96,i,1.2,-2,73,11
O=C(c1cccc(C(=O)N2CCN(c3ccccc3F)CC2)c1)N1CCN(c2ccccc2F)CC1,-1.0,104,i,1,-22,122,-1
Cc1oc(CC(C)C)c(CN)c1C(=O)O,-2.3,105,i,0.9,28,45,-3
CC(Sc1nnc(-c2ccccc2Br)n1-c1cccc(C(F)(F)F)c1)C(N)=O (stereo unspecified),0.3,79,i,1,.,.,3
S=C(NCCc1ccccc1)N1CCN(C2CCCCC2)CC1,.,101,i,1.1,.,.,2
COc1ccc(C(=O)N[C@H](C(=O)Nc2ccc(OC)nc2)C(C)C)cc1,-0.8,102,i,0.88,-82,40,-3
COc1ccc(CCNC(=O)CC2Nc3ccccc3NC2=O)cc1OC (stereo unspecified),-2.0,91,i,1,.,.,0
S=c1[nH]nc(-c2n[nH]c3c2CCC3)n1/N=C/C=C/c1ccco1,.,110,i,0.85,.,.,.
COCCOC(=O)C1=C(C)NC2=C(C(=O)CCC2)C1c1cc2c(cc1Br)OCO2 (stereo unspecified),-1.2,93,i,1.1,.,.,-2
COc1ccc(CNC(=O)C(C)N=C2NS(=O)(=O)c3ccccc32)cc1OC (stereo unspecified),1.3,103,i,0.87,-3,51,-1

# Laid out differently: entries from further up
molecule	GALR2 ag	RGS16-Gao HTS	HSV augment	HSV augment primary fold	Insulin prom inh	Insulin prom inh cell count	PKD1 kinase inh
O=C(c1cccc(C(=O)N2CCN(c3ccccc3F)CC2)c1)N1CCN(c2ccccc2F)CC1	-1.0	104	i	1	-22	122	-1
Cc1oc(CC(C)C)c(CN)c1C(=O)O	-2.3	105	i	0.9	28	45	-3
CC(Sc1nnc(-c2ccccc2Br)n1-c1cccc(C(F)(F)F)c1)C(N)=O (stereo unspecified)	0.3	79	i	1	.	.	3
S=C(NCCc1ccccc1)N1CCN(C2CCCCC2)CC1	.	101	i	1.1	.	.	2

# Following part:
SMILES,GALR2 ag,RGS16-Gao HTS,HSV augment,HSV augment primary fold,Insulin prom inh,Insulin prom inh cell count,PKD1 kinase inh
Cc1ccc(-c2csc3nc[nH]c(=S)c23)cc1,-2.3,95,i,0.83,7,112,0
CN(C)S(=O)(=O)c1cccc(C(=O)NCC2CCCO2)c1 (stereo unspecified),-2.5,96,i,0.97,38,112,-2
O=C(Nc1cccnc1)c1ccccc1O,-2.2,95,i,0.93,18,126,6
COc1ccc(S(=O)(=O)NCc2ccco2)cc1N(C)S(=O)(=O)c1ccccc1,.,106,i,0.98,.,.,-2
O=C(NNC(=O)C1CCN(Cc2cccc(F)c2)CC1)c1cccs1,.,101,i,0.94,46,87,-5
CC(C)c1ccccc1NC(=O)COC(=O)COc1ccccc1[N+](=O)[O-],.,72,i,0.87,50,113,-8
NC(=O)c1ccccc1OCC(=O)O,-2.1,84,i,1.1,-11,46,-9
Cc1cc(NC(=O)CCSc2ccc(Cl)cc2)no1,.,94,i,0.89,.,.,-11
Cc1cccc(/C(N)=N/OC(=O)Cc2cccs2)c1,0.1,96,i,0.96,-26,93,7
CCCCNC(=O)Nc1ccccc1C(=O)NCc1ccco1,0.6,112,i,0.95,-6,73,-4
CCOC(=O)c1cc2sc(C)cc2n1CC(=O)N1CCN(C(=O)c2ccco2)CC1,-1.8,100,i,0.74,-223,0,-6
COc1ccc(Cl)cc1N(C(=O)Nc1cccc(Cl)c1)C1=NCC(C)S1 (stereo unspecified),-1.0,105,i,1.1,-50,102,12
Cc1ccc(S(=O)(=O)N(C)c2ccc(OCC(=O)Nc3nc4ccccc4s3)cc2)cc1,-0.3,91,i,0.81,25,104,-3
Cc1ccc(C(=O)N/C(=C\c2ccc(-c3ccc(Br)cc3)o2)C(=O)NCCCN(C)C)cc1,.,97,i,0.7,.,.,-2
Cc1nc(CN2CCCC2=NC#N)n(-c2ccccc2)n1,-1.8,103,i,1,.,.,-8
O=C(CC(NC(=O)c1ccccc1)c1ccccc1)Nc1ccc(F)c(F)c1 (stereo unspecified),.,106,i,0.89,15,98,-3
CCc1c(C)nc(N)n2c(SCC(=O)Nc3ccccc3)nnc12,-1.4,100,i,1,-41,99,-10
Cc1cc(C)n(-c2nc(C(F)(F)F)nc3ccccc23)n1,.,103,i,1,.,.,-3
Cc1cccc(OCCCC(=O)Nc2ccc(S(=O)(=O)Nc3onc(C)c3C)cc2)c1,-0.5,98,i,0.98,.,.,-2
CCCOc1ccc(C(=O)Nc2ccccc2[N+](=O)[O-])cc1,-1.6,.,i,1,-7,102,-3
CCCCCC(C)n1[nH]c(=O)cc1N (stereo unspecified),-1.4,99,i,1,-34,100,-4
CSc1cccc(NC(=O)COc2cccc3ccccc23)c1,-3.6,101,i,0.91,73*,48*,0
CN(CC(=O)N1CCN(c2ccccc2F)CC1)S(=O)(=O)c1cnc[nH]1,-1.8,104,i,0.82,8,120,-1
COc1cc2c(cc1OC)C(C(=O)NCc1cccnc1)C(c1cccnc1)N(C)C2=O (stereo unspecified),-2.6,110,i,0.94,.,.,11
O=C(/C=C/c1ccccc1)CC(=O)c1ccccc1O,.,99,i,1,.,.,-3
O=C(NNS(=O)(=O)c1ccccc1[N+](=O)[O-])c1ccncc1,-0.3,103,i,0.97,30,97,-15
Cc1nnc(NC(=O)Cc2cccs2)s1,-1.6,98,i,0.96,36,66,-25
COc1ccc(Nc2nc(N3CCCCC3)c3ccccc3n2)cc1,-0.4,84,i,0.74,-10,82,-4
CCOC(=O)c1cc([N+](=O)[O-])sc1NC(=O)c1ccc(S(=O)(=O)N2CC3(C)CC2CC(C)(C)C3)cc1 (stereo unspecified),-1.9,102,i,1.1,10,68,-7
COc1ccc(NC(=O)/C(C#N)=C\c2cc(C)n(-c3ccc(Oc4ccc([N+](=O)[O-])cn4)cc3)c2C)cc1,0.4,88,i,0.92,-41,84,3
CCn1c(SCC(=O)OC(C)C)nnc1-c1ccccc1,.,94,i,0.93,.,.,.
O=C(NNc1cccc(Cl)n1)Nc1ccc(F)cc1,.,102,i,0.91,.,.,-3
C[C@@H](C(=O)Nc1ccc2ccccc2c1)[C@H]1C[C@]1(C)[C@H](NP(=O)(c1ccccc1)c1ccccc1)c1ccccc1,-1.8,95,i,1.1,-23,97,-6
COC(=O)c1cccc(NS(=O)(=O)c2ccc(OC)c(OC)c2)c1C,-1.1,90,i,0.93,17,67,8
O=C(CSc1nc2c(c(=O)n1-c1ccc(Cl)cc1)SCC2)NCC1CCCO1 (stereo unspecified),-2.2,97,.,.,.,.,-1
COc1ccccc1OCc1ccc(C(=O)Nc2ccc(Cl)cn2)o1,.,103,i,0.93,.,.,-7
COC(=O)c1ccc(/C=N/Nc2nc(N3CCCCC3)nc(N3CCCCC3)n2)cc1,.,103,i,1,-6,64,6
COc1cccc(C(=O)CSc2nnc(-c3cc(OC)cc(OC)c3)o2)c1,-0.1,117,i,0.83,14,82,-5
Cc1cc(C)n(C(=O)CSc2nnc(SCC(=O)n3nc(C)cc3C)s2)n1,-1.2,107,i,0.88,27,106,-9
CC(c1ccccc1)C1CC(=O)N(c2ccc(C(=O)O)cc2)C1=O (stereo unspecified),-0.8,103,i,1.1,-37,109,0

# One compound at a time, as listed above.
# Results for COc1ccc(Nc2nc(N3CCCCC3)c3ccccc3n2)cc1 : GALR2 ag = -0.4; RGS16-Gao HTS = 84; HSV augment = i; HSV augment primary fold = 0.74; Insulin prom inh = -10; Insulin prom inh cell count = 82; PKD1 kinase inh = -4
# Results for COC(=O)c1cccc(NS(=O)(=O)c2ccc(OC)c(OC)c2)c1C : GALR2 ag = -1.1; RGS16-Gao HTS = 90; HSV augment = i; HSV augment primary fold = 0.93; Insulin prom inh = 17; Insulin prom inh cell count = 67; PKD1 kinase inh = 8

# Compounds from the list above with an NH in an aromatic ring (4):
SMILES,GALR2 ag,RGS16-Gao HTS,HSV augment,HSV augment primary fold,Insulin prom inh,Insulin prom inh cell count,PKD1 kinase inh
S=c1[nH]nc(-c2n[nH]c3c2CCC3)n1/N=C/C=C/c1ccco1,.,110,i,0.85,.,.,.
Cc1ccc(-c2csc3nc[nH]c(=S)c23)cc1,-2.3,95,i,0.83,7,112,0
CCCCCC(C)n1[nH]c(=O)cc1N (stereo unspecified),-1.4,99,i,1,-34,100,-4
CN(CC(=O)N1CCN(c2ccccc2F)CC1)S(=O)(=O)c1cnc[nH]1,-1.8,104,i,0.82,8,120,-1

# (list continues)
SMILES,GALR2 ag,RGS16-Gao HTS,HSV augment,HSV augment primary fold,Insulin prom inh,Insulin prom inh cell count,PKD1 kinase inh
Cc1ccc(-c2nc3cnccn3c2Nc2ccccc2)o1,.,97,i,1.1,.,.,-5
O=C1NC(c2ccc(Br)cc2)Nc2sc3c(c21)CCC3 (stereo unspecified),-1.2,85,i,0.89,-23,155,5
Fc1ccc(CNCc2ccccc2Cl)cc1,.,116,i,1.1,50,68,1
Cc1cc(C)nc(NC(=O)CSc2nccc(C)n2)n1,.,112,i,0.84,.,.,0
CCOc1ccc(S(=O)(=O)NCc2ccccc2OC)cc1,.,104,i,0.87,-18,117,-2
Nc1c(N2CCCC2)cc(Cl)c2nonc12,-3.0,86,i,1,0,90,2
Cc1cccc(NC(=O)c2nc[nH]c2C(=O)N[C@@H](CC(C)C)C(=O)OCc2ccccc2)c1,.,110,i,0.78,.,.,.
CC(C)COc1ccc(S(=O)(=O)NNC(=O)c2cc3ccccc3o2)cc1,-0.8,120,i,1,8,129,-2
COc1ccccc1CNC(=O)C(C)NS(=O)(=O)c1ccc(Br)cc1 (stereo unspecified),-0.6,63,i,0.9,-494,21,-4
CCC(C)(C(=O)NC1CCCC1)N(Cc1ccco1)C(=O)c1ccc2c(c1)OCO2 (stereo unspecified),-2.4,102,i,0.88,-50,80,11
O=C(Cn1cc2c(n1)CCCC2)N1CCCc2ccccc21,-1.0,99,i,1.5,.,.,0
N#Cc1c(NC(=O)CN2CCOCC2)oc(-c2ccccc2)c1-c1ccccc1,-1.1,104,i,1,41,61,-3
O=C(CCCSc1nc2ccccc2[nH]1)Nc1nnc(-c2ccccc2)o1,-2.6,100,i,0.79,6,103,-1
CCOc1ccc(NC(=O)COc2ccc(OC)cc2)cc1,.,127,i,0.87,13,96,-2
CCc1ccc(C2N(c3ccc(OC)cc3)C(=O)C3CCCN32)cc1 (stereo unspecified),0.6,100,i,1.4,.,.,-13
COC(=O)c1cc(NC(=O)c2cccc([N+](=O)[O-])c2C)ccc1Cl,.,102,i,0.9,.,.,3
COc1ccc(-c2cc(C(=O)N3CCc4ccccc4C3)no2)cc1OC,-0.3,113,i,0.93,.,.,-4
CC(Sc1nnc(-c2cccnc2)n1-c1ccccc1)C(=O)NCc1ccc2c(c1)OCO2 (stereo unspecified),-1.2,101,i,0.95,-27,118,-1

# Screening data (PubChem)

# Hits appear at their usual frequency; any-hit rate near 1.3%.
